Screening data from PubChem.
Mtb H37Rv – M. tuberculosis H37Rv growth inhibitors, H37Rv strain (AID 1626). M. tuberculosis H37Rv growth inhibition; higher % means a stronger effect. one-dose inhibition, % at 10 µM; IC50 in µM for titrated hits. actives 0.95% (n = 220,000);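 active = confirmed in a dose series; inconclusive = inhibition above 80% but not taken into the dose series; inactive = below 80% or under 30% at every dose of the series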;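 also: bacteria incubated seven days before Alamar blue readout; 0% = bacteria only wells and 100% = bacteria with antibiotic wells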
YopH inh – blocks Yersinia enterocolitica YopH tyrosine phosphatase | inhibition, %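 (about 10 µM by stock and volumes)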 | actives 0.16% (n = 140,000) | fluorescence Ex485/Em525;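 active = inhibition of 50% or more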;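 also: controls were vehicle for no effect and minimum signal wells for full effect; inactives centre near -20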
Mtb bLac sens – beta-lactam sensitization of Mtb H37Rv; actives 0.27% (n = 330,000); inhibition, % at 25 µM; AID 434955; M. tuberculosis H37Rv growth with meropenem, percent inhibition; hits of this screen are not shown here;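 active = about 74% or more and at least 40 points above the plate without the antibiotic, then above 30% in a dose series; inconclusive = first-round hits that could not be retested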;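 also: growth measured after seven days incubation then overnight dye step; 0% = bacteria only wells and 100% = bacteria with antibiotic; twin plates without the antibiotic show which effects depend on it; some results filed as inactive read as strong as hits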
RecA intein inh – inhibitors of M. tuberculosis RecA intein splicing | inhibition, %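 (about 9 µM by stock and volumes)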 | cell-free RecA intein splicing, fluorescence | actives 0.75% (n = 290,000); in the data active = inhibition above about 30%; inconclusive = no clear call, values can overlap the other calls;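 also: 0% = vehicle wells and 100% = reference inhibitor control wells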
Target sequence (P9WHJ3 whole entry, looked up): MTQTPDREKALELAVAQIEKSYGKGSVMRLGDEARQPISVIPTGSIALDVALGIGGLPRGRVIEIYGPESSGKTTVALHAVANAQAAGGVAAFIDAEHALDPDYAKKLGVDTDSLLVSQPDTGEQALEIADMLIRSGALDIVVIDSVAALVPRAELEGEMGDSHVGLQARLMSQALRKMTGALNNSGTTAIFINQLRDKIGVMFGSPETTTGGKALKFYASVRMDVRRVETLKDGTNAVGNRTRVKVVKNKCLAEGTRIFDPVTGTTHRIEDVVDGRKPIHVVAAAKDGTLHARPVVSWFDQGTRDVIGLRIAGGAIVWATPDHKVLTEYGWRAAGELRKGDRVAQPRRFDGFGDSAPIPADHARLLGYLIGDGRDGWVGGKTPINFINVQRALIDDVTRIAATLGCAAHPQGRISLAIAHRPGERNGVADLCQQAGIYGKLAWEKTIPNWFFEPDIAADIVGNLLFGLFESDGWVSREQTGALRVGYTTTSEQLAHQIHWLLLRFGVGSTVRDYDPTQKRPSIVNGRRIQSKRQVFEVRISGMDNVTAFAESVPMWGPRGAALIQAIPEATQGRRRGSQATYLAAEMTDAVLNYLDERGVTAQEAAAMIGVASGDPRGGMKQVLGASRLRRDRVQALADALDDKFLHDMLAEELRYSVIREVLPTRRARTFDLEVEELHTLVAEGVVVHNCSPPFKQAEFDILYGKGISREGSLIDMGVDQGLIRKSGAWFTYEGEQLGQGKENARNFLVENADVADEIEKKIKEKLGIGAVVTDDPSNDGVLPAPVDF
Arbovirus anti – blocks arbovirus infection; arbovirus infection cell-based antiviral screen; inhibition, % at 10 µM; actives 0.37% (n = 200,000); AID 1251;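 active = inhibition from about 30%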;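 also: bluetongue infection of BSR cells; cell survival read as ATP light after 72 h; 0% = infected wells without compound and 100% = uninfected wells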
Arbovirus anti repeat – further read-out of Arbovirus anti, marked with its call; inhibition, %; measured here: 10K subset replicate screen; many hits read low in the repeat;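 first of two repeat runs on a subset; 0% = infected and 100% = uninfected wells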
Starred values were filed as active, the others as inactive; u = inconclusive; x = not tested or not shown; & = joins results of further samples. Not all compounds are listed; count on the stated rates, not on these rows.

SMILES	Mtb H37Rv	YopH inh	Mtb bLac sens	RecA intein inh	Arbovirus anti	others
C=CCNC(=O)Nc1ccc(OCC)cc1	-2%	5	-10	0.1	3
Cc1cc(=O)oc2cc(NC(=O)c3cc([N+](=O)[O-])ccc3N3CCOCC3)ccc12	1%	x	6	-0.3	14
CC(C(=O)N1CCN(C=O)CC1)N1C(=O)c2ccccc2C1=O (centres undefined)	2%	-6	-8	-5.5	-2
O=c1c2ccc(Cl)cc2[nH]c(=S)n1Cc1cccnc1	x	-3	4	-4.2	-8
COC(=O)c1cc(Cn2nc(C(=O)O)c3ccccc3c2=O)oc1C	x	x	-4	-0.3	x
CC(=O)N1c2ccc(Cl)cc2C2OCCC2C1c1ccco1 (centres undefined)	-8%	x	-1	-1.4	x
Cc1cc(NC(=O)c2cc(-c3ccc(OC(C)C)cc3)nc3ccccc23)no1	x	x	16	-0.9	x
Cc1onc(C(=O)N2CCN(c3ccccc3F)CC2)c1-c1ccccc1Cl	11%	-8	-9	1.8	22
O=C(NC1CCN(Cc2ccccc2)CC1)C1CCCN(c2nnc(-n3cccc3)s2)C1 (centres undefined)	0%	-6	-3	0.2	-1	Arbovirus anti repeat=-1
COc1ccc(NC(=O)Nc2cnccn2)c(OC)c1	x	x	-16	-0.8	x
CCSc1cc(C2C(C#N)=C(N)OC(C)=C2C(=O)OC)c(C)o1 (centres undefined)	9%	-28	-8	0.4	-2
O=C(NCc1ccc(F)cc1)c1ccc(S(=O)(=O)Nc2cccc(C(F)(F)F)c2)cc1	5%	-11	5	5.3	-16
COc1ccc(/C=N/NC(=O)c2ccco2)cc1COc1ccc(F)cc1	x	x	-5	-1.3	x
COC(=O)C1=NN(c2ccccc2)C2(S1)S/C(=C\c1ccccc1)C(=O)N2c1ccccc1 (centres undefined)	20%	5	95	1.4	0
O=C(O)CSC(=S)N1CC2CC(C1)c1cccc(=O)n1C2 (centres undefined)	-8%	x	-6	-3.9	-2
Cc1ccc2c(c1)N=C(c1ccc(F)cc1)CO2	-2%	20	-6	0.7	5
O=C(NCCc1ccccc1F)C(=O)Nc1nccs1	1%	-13	-2	-3.0	3
CCCCCCCCC/C(=N\O)c1ccccn1	1.6µM*	2	99	8.7	-42
Cc1ccc(/C=C/C(=O)NCc2ccco2)o1	0%	-21	-3	5.5	-8
Cc1ccc(CNC(=O)NCc2ccccc2)cc1	1%	x	1	-2.0	2
Cc1ccc(NC(=O)Nc2cccc(C)n2)cc1	x	x	2	0.2	x
COc1ccccc1Oc1ccc2c(c1)C(=O)N(CC(=O)O)C2=O	x	x	6	0.1	x
O=C1CC(c2cccc([N+](=O)[O-])c2)c2ccc3ccccc3c2N1 (centres undefined)	-5%	-13	9	-2.5	36*
COc1ccc(S(=O)(=O)N2CCC(N3CCN(c4ccccc4)CC3)CC2)cc1	x	0	-5	0.3	11
Cc1ccc(C(=O)COC(=O)CCN2C(=O)C3C4CC(C(Br)C4Br)C3C2=O)cc1 (centres undefined)	-3%	-17	u	1.2	3
O=C(CSc1nccc(-c2cccs2)n1)Nc1ccc(F)c(Cl)c1	-6%	x	-14	2.4	x
O=C(CSc1n[nH]c(=O)[nH]c1=O)Nc1ccc(C(=O)O)cc1	2%	x	1	-1.2	-2
CC(Sc1ccc2ccccc2n1)C(=O)O (centres undefined)	x	-17&-122	x	1.5&0.6	0&9
Cc1ccc(NC(=O)c2cc(-c3ccco3)on2)cc1C	39%	-43	47	-3.0	3
CC1Cc2cc(/C(O)=C3/C(=O)C(=O)N(CCN4CCOCC4)C3c3cccc(O)c3)ccc2O1 (centres undefined)	-7%	-49	-4	-1.3	-2
CC1=Nc2ccccc2/C1=C/c1sc(=O)n(CC(=O)N2CCCC2)c1O	-8%	-20	0	-3.1	-7
O=C(Nc1cccc(Cl)c1Cl)c1ccncc1	-9%	12	4	-0.3	7	Arbovirus anti repeat=3
O=S(=O)(c1ccc2[nH]ccc2c1)N1CCCCCC1	x	x	2	-4.8	x
COc1ccc(/C(O)=C2\C(=O)C(=O)N(Cc3ccco3)C2c2cc(OC)ccc2OC)cc1 (centres undefined)	-4%	-49	4	0.5	3
COc1ccc(N2C(=O)c3ccccc3C2=O)cc1	28%	x	28	1.8	2
CCOc1ccc(-c2nnc(SCc3nnc(-c4ccccc4)o3)n2-c2ccccc2F)cc1	11%	-7	-7	0.2	16
NC(=O)CC(NC(=O)Cc1cccc2ccccc12)c1ccc(NCC2CC2)c([N+](=O)[O-])c1 (centres undefined)	-4%	x	-11	-0.9	x
CCC(=O)c1c[nH]c(C(=O)N2CCOCC2)c1	x	x	-3	-0.2	x
O=c1c(Cc2ccccc2)c(O)nc2n1CCCS2	-5%	-52	-4	-4.3	11
O=C(c1ccc(Cl)cc1)c1cn[nH]c1-c1ccccc1O	-6%	-6	0	-1.0	17
Fc1ccc(Nc2c3c(nc4ccccc24)CCC3)cc1	8%	x	-5	-2.8	-20
O=C(C1=C[C@@H](c2coc3ccccc3c2=O)C[C@@H](OCc2ccc(CO)cc2)O1)N1CCCCCCC1	x	x	0	4.1	0
Cc1cc(-c2ccc(C)c(S(=O)(=O)NCCCN(Cc3ccccc3)C(C)C)c2)on1	x	x	-17	3.4	x
CCN1C(=O)[C@H]2[C@@H](c3ccc(-c4ccccc4)cc3)N3CCCC[C@@]3(C(=O)OC)[C@H]2C1=O	x	x	-1	-3.5	x
O=C(/C=C/c1ccc2c(c1)OCO2)Nc1ccc(Cl)cn1	11%	x	-10	-1.5	-33
COc1ccc(NC(=O)c2cc([N+](=O)[O-])ccc2NC(=O)CNCc2ccccn2)c(OC)c1	x	x	4	-3.8	x
CCC(C)C(=O)N1CCc2cc(-c3csc(N)n3)ccc21 (centres undefined)	47%	-10	95	-0.8	-12
COc1ccc(C)cc1NC(=O)CCN1CCN(c2ccccc2)CC1	x	x	9	0.9	x
COc1ccc(NC(C)=O)cc1NC(=O)CN1CCN(S(=O)(=O)c2ccc(C(C)C)cc2)CC1	-1%	-39	2	-5.4	-3
C=CCn1c(=O)/c(=C2/Sc3cc(OC)ccc3N2C)s/c1=C1\C(=O)N(CC)C(=S)N1C	6%	x	-9	-0.4	-7
Cc1nn(-c2ccc(Cl)cc2)c(Cl)c1/C=N/NC(=O)c1ccc(NS(=O)(=O)c2cccs2)cc1	x	x	84	1.6	x
Cn1cc(CCNC(=O)C2CCC(=O)N(CCc3ccc(Cl)cc3)C2)cn1 (centres undefined)	x	x	-7	2.3	x
CC(=O)c1ccc(OCC(=O)Nc2ccccc2C(=O)NC2CC2)cc1	x	x	-10	0.5	x
O=C(CN1C(=O)c2ccccc2C1=O)Nc1nnc(C2CCCO2)s1 (centres undefined)	-6%	-5	2	-0.4	0
O=C(Nc1cccc(C(F)(F)F)c1)C(=O)N1CCCCC1	-3%	x	0	-1.4	1
CN1CCN(c2nnc(-c3ccc(Cl)cc3)c3ccccc23)CC1	x	x	4	0.5	x
CCOc1ccc(NC(=O)N(CC(C)C)CC(C)C)cc1	-10%	-9	-4	2.9	8
CN(C)S(=O)(=O)c1cccc(NC(=O)COC(=O)COc2ccccc2[N+](=O)[O-])c1	8%	x	-4	0.9	1
O=C(N/N=C/c1cccn1-c1ccc(O)cc1)c1cccc2ccccc12	x	x	-1	-1.8	x
O=C(CN1CCCCCC1)Nc1cc(C(F)(F)F)ccc1Cl	1%	x	-3	9.8	2
Next results
SMILES	Mtb H37Rv	YopH inh	Mtb bLac sens	RecA intein inh	Arbovirus anti	others
CCCn1nc([N+](=O)[O-])c(C(C#N)c2nc3ccccc3s2)c(Cl)c1=O (centres undefined)	13%	-20	59	81*	-36
COc1cc(S(=O)(=O)n2cnc(C)c2)ccc1Br	-2%	x	2	-0.6	-1
CNC(=O)c1ccc(Nc2nc(-c3ccccc3)nc3ccccc23)cc1	x	x	2	5.0	x
COC(=O)c1ccccc1S(=O)(=O)N(CCCO)Cc1cc2c(C)ccc(C)c2[nH]c1=O	-6%	-26	2	3.4	10
CCc1cccc(NC2c3ccccc3C(=O)N2c2ccc(C)cn2)c1 (centres undefined)	18%	-10	7	8.8	3
CCOC(=O)c1csc(COc2ccccc2Cl)n1	-5%	x	1	1.2	x
O=C(CC12CC3CC(CC(C3)C1)C2)NCO	-7%	-48	-4	1.1	0	Arbovirus anti repeat=2
O=C(COc1ccc(Cl)cc1)NCCCNC(=O)c1ccccn1	x	x	7	2.2	x
CCOC(=O)c1c(C2CC2)csc1NC(=O)COC(=O)c1cnc(Cl)c(Cl)c1	8%	-13	11	-2.8	-4
COc1ccc(-c2ccc(SCC(=O)NCc3ccco3)nn2)cc1	-3%	-51	-7	-0.8	5
Cc1nnc(NC(=O)c2ccc3c(c2)C(=O)N(CC2CCCO2)C3=O)s1 (centres undefined)	-10%	-33	-6	3.7	0
COC(=O)c1ccc2c(=O)[nH]c(COC(=O)c3cccc(S(=O)(=O)N4CCOCC4)c3)nc2c1	x	x	-3	-1.2	x
O=C(NC(=S)Nc1ccc(N2CCCCC2)cc1)c1cccs1	74%	-32	88	-1.1	6
COc1ccc(C(=O)OC2C[C@H]3CC[C@@H](C2)N3O)cc1OC (some centres undefined)	x	x	-2	-6.0	x
CCn1nc(C(=O)OCC(=O)NC(C)C)c2ccccc2c1=O	-1%	x	-8	1.0	10
O=C(c1ccc(F)cc1)C1CCN(C(=O)N2CCOCC2)CC1	-10%	-47	-8	-2.1	2
COc1ccc(NC(=O)CSc2nnc(-c3ccncc3)n2C)cc1	-5%	x	-8	0.5	-1
CCN(C(=O)C1CCCN(c2ncnc3c2nc2n3CCCCC2)C1)c1cccc(Cl)c1 (centres undefined)	x	x	24	11	x
CCSc1ccccc1C(=O)Nc1cc(C)on1	3%	-28	-3	-0.6	-2
COc1ccc(C(=O)N/N=C/C(Br)=C/c2ccccc2)cc1	x	-12	-1	-1.6	12
O=C(c1ccc(S(=O)(=O)N2CCCC2)cc1)N(Cc1ccco1)C1CCS(=O)(=O)C1 (centres undefined)	-1%	x	1	1.2	x
Cc1ccc(-c2nc(NC(=O)CSc3nnc(C)s3)ns2)cc1	4%	-47	-1	-0.1	0	Arbovirus anti repeat=-2
Cc1cc(Nc2cccc(Cl)c2C)n2ncnc2n1	x	-39	-3	2.5	-6	Arbovirus anti repeat=0
Cc1cccc(C)c1NC(=O)CS(=O)CC(=O)NC1CCN(Cc2ccccc2)CC1 (centres undefined)	-16%	-46	u	3.9	12
CSc1ccc(C(=O)N2CCC(n3nccc3NC(=O)C3CC3)CC2)cc1	x	x	-10	0.4	x
COc1cc(NC(C)CCCN)c2ncccc2c1Oc1ccccc1 (centres undefined)	71%	16	3	36*	-13
COc1ccc(Cn2c(=O)oc3ccccc32)cc1F	x	x	2	0.5	x

A section of the results above:
SMILES	Mtb H37Rv	YopH inh	Mtb bLac sens	RecA intein inh	Arbovirus anti	others
O=C(NC(=S)Nc1ccc(N2CCCCC2)cc1)c1cccs1	74%	-32	88	-1.1	6
COc1ccc(C(=O)OC2C[C@H]3CC[C@@H](C2)N3O)cc1OC (some centres undefined)	x	x	-2	-6.0	x
CCn1nc(C(=O)OCC(=O)NC(C)C)c2ccccc2c1=O	-1%	x	-8	1.0	10
O=C(c1ccc(F)cc1)C1CCN(C(=O)N2CCOCC2)CC1	-10%	-47	-8	-2.1	2
COc1ccc(NC(=O)CSc2nnc(-c3ccncc3)n2C)cc1	-5%	x	-8	0.5	-1
CCN(C(=O)C1CCCN(c2ncnc3c2nc2n3CCCCC2)C1)c1cccc(Cl)c1 (centres undefined)	x	x	24	11	x
CCSc1ccccc1C(=O)Nc1cc(C)on1	3%	-28	-3	-0.6	-2
COc1ccc(C(=O)N/N=C/C(Br)=C/c2ccccc2)cc1	x	-12	-1	-1.6	12
O=C(c1ccc(S(=O)(=O)N2CCCC2)cc1)N(Cc1ccco1)C1CCS(=O)(=O)C1 (centres undefined)	-1%	x	1	1.2	x
Cc1ccc(-c2nc(NC(=O)CSc3nnc(C)s3)ns2)cc1	4%	-47	-1	-0.1	0	Arbovirus anti repeat=-2
Cc1cc(Nc2cccc(Cl)c2C)n2ncnc2n1	x	-39	-3	2.5	-6	Arbovirus anti repeat=0
Cc1cccc(C)c1NC(=O)CS(=O)CC(=O)NC1CCN(Cc2ccccc2)CC1 (centres undefined)	-16%	-46	u	3.9	12
CSc1ccc(C(=O)N2CCC(n3nccc3NC(=O)C3CC3)CC2)cc1	x	x	-10	0.4	x
COc1cc(NC(C)CCCN)c2ncccc2c1Oc1ccccc1 (centres undefined)	71%	16	3	36*	-13
COc1ccc(Cn2c(=O)oc3ccccc32)cc1F	x	x	2	0.5	x
